Bioassay records: PubChem, National Center for Advancing Translational Sciences (NCATS)
Rango dissoc inh: prevents RanGTP from dissociating the Rango-importin beta complex. AID 540253. actives 0.071% (n = 340,000). Biochemical FRET Rango-importin beta, RanGTP-induced dissociation. Potency, µM (series often up to 46.1 µM), for inactives: at the top dose activity change, negative = inhibition. O95149+P62826; active means falling FRET ratio curve, often poorly fitted, with flat reads before Ran was added; inconclusive means other falling curves, or compound fluorescence or quenching; inactive means flat or rising ratio curve;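 also: potency is read from the fitted curve at half-maximal effect; % of control where 0% means no effect; nearly all actives have a fitted effect of over 45% in size; -100% = wells without RanGTP and RCC1; the record marks most hits as doubtful in a second field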
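Rango (0.1 uM)–importin beta (0.25 uM) complex; RanGTP-RCC1 trigger; 45 min RT; CFP/YFP FRET read.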
GLA inh pH 4.5: blocks human alpha-galactosidase A at pH 4.5; P06280; purified enzyme, 4-MU-alpha-Gal fluorescence, pH 4.5; activity change, negative = inhibition, % at 105 µM; 230,000 tested, under 10 active; AID 1467; inconclusive = small, poorly fitted or top-dose-only inhibition, or a rising curve; inactive = flat fitted curve, though single readings scatter; no compound was filed as active;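 also: 0% = full activity with enzyme and -100% = basal without enzyme; dose as in the result columns while the protocol names 77 µM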
Target sequence (P06280 whole entry, looked up): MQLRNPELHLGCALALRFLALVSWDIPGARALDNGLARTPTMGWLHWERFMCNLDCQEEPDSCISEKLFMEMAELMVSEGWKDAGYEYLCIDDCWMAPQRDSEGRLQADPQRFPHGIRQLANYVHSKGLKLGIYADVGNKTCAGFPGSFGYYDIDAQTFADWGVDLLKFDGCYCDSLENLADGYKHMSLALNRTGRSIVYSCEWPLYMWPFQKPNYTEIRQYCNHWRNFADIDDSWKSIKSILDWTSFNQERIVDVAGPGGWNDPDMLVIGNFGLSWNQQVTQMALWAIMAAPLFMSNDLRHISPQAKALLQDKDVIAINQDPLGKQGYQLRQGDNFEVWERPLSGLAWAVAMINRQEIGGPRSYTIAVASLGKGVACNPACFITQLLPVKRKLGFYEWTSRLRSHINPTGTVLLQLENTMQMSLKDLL
Rango-impB inh: Rango-importin beta binding inhibition; Rango CFP/YFP FRET sensor + importin beta, 45 min; Potency, µM (doses to about 92.2 µM), for inactives: top-dose inhibition of complex formation; actives 0.031% (n = 340,000); AID 540263; active = rising FRET ratio curve, often small or poorly fitted; inconclusive = mostly compound fluorescence or quenching in the first reads; inactive = flat curves in all reads;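 also: potency is read from the fitted curve at half-maximal effect; 0% = DMSO wells and 100% = buffer wells lacking importin beta; nearly all actives have a fitted effect of over 15% in size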
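FRET biosensor (snurportin 1 IBB flanked by EYFP and cerulean), 50 nM, with compound 5 min, then 0.125 microM importin beta in PBS, 1 mM DTT, 0.02% Tween-20, 0.1% BSA. CFP/YFP ratio read after 45 min at room temperature; pre-read flags interference.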
miR-21 reporter: miR-21 reporter, rising signal; HeLa miR-21 FLuc reporter, luciferase, 48 h; Potency, µM (highest dose often 38.3 µM), for inactives: at the top dose reporter change, positive = more light; 340,000 tested, under 10 active; AID 2288; active = well fitted rising curve with a large enough effect; inconclusive = small, poorly fitted or top-dose-only effect; inactive = no such curve, though single readings can be large or run the other way;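 also: % of control where 0% means no effect; miR-21 action dims this reporter so a rising signal means less miR-21 action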
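HeLa cells stably expressing CMV-driven firefly luciferase with a downstream miR-21 binding sequence, endogenously expressing miR-21, were treated with titrations (up to about 40uM final) for 48 hours at 37 degree Celsius. Luciferase luminescence was read after lysis.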
* = called active by the depositor; ? = inconclusive; . = no result given.

SMILES	Rango dissoc inh	GLA inh pH 4.5	Rango-impB inh	miR-21 reporter
O=C(CNS(=O)(=O)c1ccc(Br)s1)N1CCC(N2CCCCC2)CC1	-6.6%	-25.9	-4.6%	0.4%
CCOC(=O)c1sc(=S)n(C)c1NC(=O)c1ccc(C(C)(C)C)cc1	31.9%	-5.5	-0.5%	22.7%
CCOc1ccc(S(=O)(=O)N2CCN=C2c2ccccc2)c(C)c1C	1.1%	.	-5.2%	-4.0%
COc1ccc(/C(O)=C2/C(=O)C(=O)N(Cc3ccco3)C2c2cccs2)cc1 (centres undefined)	1.8%	.	?	-41.2%
O=S(=O)(c1ccccc1)N1CCN(C(=S)NCCc2ccccc2)CC1	0.8%	.	-1.9%	2.9%
COc1ccc(-c2cc3c(=O)n(CC(=O)NCCCN4CCC(N5CCCCC5)CC4)nc(C)n3n2)cc1	-9.0%	.	0.1%	-27.7%
CCn1nnc(NC(=O)c2ccc(-c3ccc(Cl)cc3)o2)n1	-14.1%	2.1	-4.0%	-38.8%
CC(C)Oc1ccc(/C=N/NC(=O)C(CSCc2ccccc2)NC(=O)c2ccc([N+](=O)[O-])cc2)cc1 (centres undefined)	14.4%	-1.4	-4.0%	-2.7%
O=C(CC1Nc2ccccc2NC1=O)Nc1ccc2c(c1)OCO2 (centres undefined)	-25.5%	6.4	?	2.4%
Cc1cc(NC(=O)CN2C(=O)NC(C)(c3ccc(Cl)cc3)C2=O)no1 (centres undefined)	0.0%	-0.2	-0.6%	-3.0%
O=C(CSc1nc(Cc2ccccc2)nc2ccccc12)Nc1ccc2c(c1)OCCO2	-15.4%	-21.6	-0.1%	-19.5%
NC(=O)c1c(NC(=O)Cc2ccccc2)sc2c1CCN(Cc1ccccc1)C2	?	.	?	17.4%
CN(Cc1ccccc1)C(=O)c1ccccc1NC(=O)C1=CSCCO1	-8.4%	.	2.0%	-1.7%
COc1ccc(Cc2nc3ccc(C(=O)N(C)CCc4cnn(C)c4)cc3o2)cc1OC	-4.0%	.	0.1%	8.3%
CCC(C)[C@H]1COCCS(=O)(=O)N1Cc1ccccc1 (some centres undefined)	1.2%	.	-1.1%	-0.1%
Cc1c(O)ccc(/C(Cc2ccc3ccccc3n2)=N\O)c1O	-9.2%	4.2	-1.0%	-17.0%
COc1cc(NC(=O)CCCl)cc(-n2cnnn2)c1	2.5%	6.2	-3.3%	0.0%
COc1cccc(C(C(=O)NC2CCCCC2)N(C(=O)CNC(=O)c2ccco2)c2cccnc2)c1 (centres undefined)	-9.8%	.	0.8%	0.4%
CN(CCCNC(=O)C1CCC(=O)N1Cc1ccccc1Cl)c1ccccc1 (centres undefined)	-6.3%	6.6	2.1%	-3.0%
C/C(=N\NC(=O)c1ccc2c(c1)OCO2)c1ccc(NS(C)(=O)=O)cc1	3.0%	.	4.0%	.
Cc1ccc(S(=O)(=O)N2CCN(C(=O)c3cccs3)CC2)c(C)c1	18.8%	0.4	3.4%	13.1%
COc1ccccc1NC(=O)COC(=O)/C=C/c1ccccc1[N+](=O)[O-]	18.8%	-0.5	0.6%	2.4%
CCCCOC(=O)CSC(=S)N(C)Cc1cccs1	2.7%	1.9	0.3%	-0.5%
CCOC(=O)c1sc(NC(=O)c2cccnc2)nc1C	?	-8.9	?	-1.9%
N#Cc1c(SCc2cccc(Cl)c2)sc(C(=O)c2ccccc2)c1N	-0.3%	-3.5	?	-3.5%
COC(=O)c1ccccc1NC(=O)COC(=O)/C=C/c1cccs1	-7.5%	.	1.6%	.
O=C(c1ccc2c(c1)C(=O)N(Cc1ccncc1)C2=O)N1CCN(S(=O)(=O)c2ccc(OC(F)(F)F)cc2)CC1	17.2%	.	5.1%	.
CCOc1ccc(C(F)(F)F)cc1NC(C)=O	-0.1%	-5.4	-3.1%	-0.1%
CC(Oc1ccccc1)C(=O)NN1Cc2ccccc2C1=N (centres undefined)	10.1%	10.3	0.5%	0.6%
CC(C)CNS(=O)(=O)c1ccc(OCC(=O)NCc2ccco2)cc1	7.4%	0.3	3.0%	1.0%
CCOC(=O)/C(C#N)=C1/C=CNC(=O)N1	-13.3%	3.7	?	2.6%
Cn1cccc1Cc1nnc(SCC(=O)Nc2nccs2)n1C	21.2%	.	0.4%	6.6%
CC1(c2cccc(Br)c2)NC(=O)N(CC(=O)c2ccc3c(c2)OCCO3)C1=O (centres undefined)	0.0%	.	6.7%	.
CN=C(Nc1cc(C)nn1CCC#N)c1ccc(F)cc1	3.2%	-3.9	3.8%	-6.8%
CCN(C(=O)COC(=O)c1ccc2[nH]c(C)c(C)c2c1)c1c(N)n(Cc2ccccc2)c(=O)[nH]c1=O	13.2%	.	5.2%	.
CN(C)C(CNS(=O)(=O)c1cc([N+](=O)[O-])ccc1Cl)c1ccco1 (centres undefined)	-7.8%	.	8.1%	.
CN(C)C(=C(C#N)C#N)N1CCN(c2ccc(Cl)cc2)CC1	17.3%	4.5	0.8%	-3.7%
CC(=O)N1CCN(c2ccc(NC(=O)c3ccccc3C)cc2)CC1	-14.3%	.	5.9%	-10.1%
Fc1ccccc1-n1cn[nH]c1=S	20.2%	-0.3	-0.5%	-31.7%
CCCn1c(=O)c(C(=O)NCc2ccccc2)c(O)c2ccccc21	-2.9%	.	-4.7%	-9.1%
CC(=O)c1ccc(N2CCN(S(=O)(=O)c3cc4c(cc3C)NC(=O)CO4)CC2)cc1	-3.6%	.	10.6%	1.6%
CCc1ccc(NC(=O)c2c(Cl)nc(C)c(Cl)c2C)cc1	3.3%	-3.5	-4.3%	10.2%
COc1cccc(-c2c(C#N)c(N)nc3c2c(=O)nc2sccn23)c1	.	6.0	.	0.6%
COc1cccc(C(=O)N2CCN(Cc3ccccn3)CC2)c1OC	?	7.9	-1.7%	-6.5%
Cc1cccc(C)c1NC1=C(Cl)C(=O)OC1OC(C)C (centres undefined)	12.7%	3.1	-2.9%	-8.6%
COc1ccc(C(=O)NCc2nnc(SCCOc3ccccc3)n2C)cc1	-5.4%	1.6	-2.5%	0.0%
COc1ccc(NC(=O)Nc2cccc3c2O[C@H](CN(C)S(=O)(=O)c2cn(C)cn2)[C@@H](C)CN([C@H](C)CO)C3=O)cc1	-7.7%	.	-3.0%	.
CCOc1cc(-c2noc(CCC(=O)NC3CCCCC3)n2)ccc1OC	-3.3%	.	0.9%	-7.1%

Random excerpt: 3 records from the list.
SMILES	Rango dissoc inh	GLA inh pH 4.5	Rango-impB inh	miR-21 reporter
CCOc1cc(-c2noc(CCC(=O)NC3CCCCC3)n2)ccc1OC	-3.3%	.	0.9%	-7.1%
CCC(C)[C@H]1COCCS(=O)(=O)N1Cc1ccccc1 (some centres undefined)	1.2%	.	-1.1%	-0.1%
N#Cc1c(SCc2cccc(Cl)c2)sc(C(=O)c2ccccc2)c1N	-0.3%	-3.5	?	-3.5%

Next part
SMILES	Rango dissoc inh	GLA inh pH 4.5	Rango-impB inh	miR-21 reporter
O=C(Nc1cccnc1)c1ccc(Br)s1	1.7%	-12.3	3.3%	18.5%
CC(=O)Nc1ccc(S(=O)(=O)NCCC(=O)OCCN2C(=O)c3ccccc3C2=O)cc1	13.6%	1.5	1.7%	-1.7%
CC1CCCC(C)N1CCOc1cc(N)ccc1C#N (centres undefined)	3.9%	.	-2.1%	.
O=C(Nc1ccc(NC(=O)c2cccs2)cc1)c1ccccc1	0.1%	.	-2.6%	-32.0%
C=C1C(=O)O[C@@H]2[C@H]3O[C@]3(C)CC/C=C(\C)CC[C@@H]12	8.3%	.	-0.3%	.
Cc1ccc(C(=O)OCC(=O)Nc2ccc(N3CCOCC3)cc2)cc1	-17.0%	.	-2.8%	.
COc1ccc(CCNC(=O)CSC2=Nc3ccccc3C3=NC(C(C)C)C(=O)N23)cc1OC (centres undefined)	-6.3%	0.2	3.0%	4.1%
Cc1[nH]c2ccccc2c1C(=O)C(=O)N1CCN(C)CC1	24.2%	-3.1	7.9%	-1.9%
CC(=O)N1N=C(c2cccc(NS(C)(=O)=O)c2)CC1c1ccc2c(c1)OCO2 (centres undefined)	12.4%	.	-0.2%	-36.4%
CCOc1cc(CNCCc2ccc(S(N)(=O)=O)cc2)ccc1OCc1ccccc1	12.5%	-2.7	0.2%	7.4%
Cc1ccc(C)n1-c1nn(S(=O)(=O)c2cccc(C(F)(F)F)c2)c2cccc(F)c12	6.5%	-16.1	-1.7%	0.8%
CCOC(=O)N1CCN(C(=O)CN(Cc2ccccc2)S(=O)(=O)c2ccc(OC)c(Cl)c2)CC1	1.8%	-7.8	-0.4%	5.3%
CC(OC(=O)/C(C#N)=C/c1ccco1)C(=O)N(C)c1ccccc1 (centres undefined)	-20.2%	.	0.0%	.
C[n+]1c(-c2ccccc2)cc2c(=Cc3ccccc3)c3ccccc3n21	?	.	?	.
COc1cc(C)ccc1OCCCOc1ccccc1Br	-5.2%	-1.2	-0.2%	-62.9%
CCN(CC)S(=O)(=O)c1ccc(C(=O)NCc2cccs2)cc1	-5.2%	12.5	0.0%	-7.3%
Nc1ncnc2c1ncn2[C@@H]1O[C@H](CNCc2ccc(OCC(=O)Nc3ccccn3)cc2)[C@@H](O)[C@H]1O	-10.2%	.	2.9%	.
O=C(Nc1ccc(F)cc1)C1CCN(C(=O)c2ccc([N+](=O)[O-])cc2)CC1	-0.1%	-4.3	0.0%	0.1%
O=C(c1cnn2c(C(F)F)cc(-c3ccccc3)nc12)N1CCc2ccccc21	2.3%	-1.0	-0.3%	-1.3%
COc1ccc(NS(=O)(=O)c2ccc3c(c2)NC(=O)C(C)S3)cc1 (centres undefined)	?	.	?	13.4%
CCC(C)(NC(=O)c1ccc(=O)[nH]c1)C(=O)NC1CCCC1 (centres undefined)	-3.1%	9.4	-2.4%	-7.6%
CC1Cc2ccccc2N1C(=O)CSc1nc2cc3c(cc2cc1C#N)OCO3 (centres undefined)	-24.5%	2.6	3.5%	-10.9%
OCC[C@H]1C[C@@H](O)[C@H](O)[C@@]2(Cc3ccccc3O2)O1	-3.1%	.	?	.
CC1CC(=O)N(c2ccc(NCc3ccccc3Cl)c([N+](=O)[O-])c2)C1=O (centres undefined)	1.2%	-7.4	1.9%	-5.1%
Cc1ccc2nc(-c3ccc(NC(=O)CCS(=O)(=O)c4ccccc4)cc3)sc2c1	-18.0%	3.8	-2.7%	11.4%
CCOC(=O)c1[nH]c(C)c(C(=O)N2CCOCC2)c1C	-2.5%	-1.0	-3.3%	-0.7%
O=C1CC2(CCN(C(=O)c3ccc([N+](=O)[O-])cc3)CC2)Oc2ccccc21	-2.6%	.	0.4%	.
CCN(C(=O)COC(=O)CCOc1ccc(C(C)(C)C)cc1)c1c(N)n(Cc2ccccc2)c(=O)[nH]c1=O	11.9%	.	0.2%	.
COc1ccc(Cc2nnc(NC(=O)C3CCCO3)s2)cc1 (centres undefined)	-9.5%	2.6	1.7%	-19.9%
COc1ccc(CN(C)CC(=O)Nc2c(C)cccc2C)c(OC)c1	28.9%	3.7	0.8%	-20.6%
Cc1cccc(OCC(O)Cn2c(=N)n(CCN3CCOCC3)c3ccccc32)c1 (centres undefined)	-13.7%	2.3	-1.7%	0.4%
O=C(Cn1[nH]c(=O)c2ccccc2c1=O)OCC(=O)c1ccc(F)c(F)c1	-1.4%	.	-5.3%	.
O=C(COC(=O)c1n[nH]c2ccccc12)NCCc1ccc(Cl)cc1	-13.5%	.	-0.5%	.
COc1cccc(CNC(=O)C2CCCN(S(=O)(=O)c3ccc4c(c3)C(C)(C)C(=O)N4C)C2)c1 (centres undefined)	24.1%	.	-1.3%	8.8%
O=C(CNC(=O)c1ccccc1)N=Nc1c(O)[nH]c2ccc(Br)cc12	-0.6%	.	-0.1%	5.9%
CCN(CC)C(=O)c1nc[nH]c1C(=O)O[C@@H](C)c1ccccc1	1.4%	.	-0.1%	.
CCOc1ccc(C(=O)Nc2ccc(NC(=O)c3ccco3)c(Cl)c2)cc1Br	-3.6%	-4.1	-2.5%	-6.0%
CCN(Cc1nc(-c2ccc(OC)cc2)no1)C(=O)c1ccoc1C	2.8%	.	0.7%	-5.6%
COc1ccc(CCNC(=O)C2CCN(C(=O)c3ccc(C(C)(C)C)cc3)CC2)cc1	2.8%	.	0.8%	-20.7%
Cc1ccc(S(=O)(=O)N(CC(=O)O)Cc2ccccc2F)cc1	-10.8%	-2.7	2.8%	-5.5%

An excerpt. The share of hits here may be higher or lower than overall.
